Screening results as filed in PubChem.
CHT block: inhibits the human high affinity choline transporter; Q9GZV3; CHT-expressing cells, membrane potential dye, choline response; active compounds read low; B-score at 10 µM; 0.86% of 310,000 active; AID 488975;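 active = B-score over 3 SD under the library average, and starting fluorescence ratio not unusually high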;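 note: choline stimulus applied at its EC90 after an EC20 pre-addition; B-score computed on integrated fluorescence ratio after choline addition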
Target sequence (Q9GZV3 whole entry, looked up): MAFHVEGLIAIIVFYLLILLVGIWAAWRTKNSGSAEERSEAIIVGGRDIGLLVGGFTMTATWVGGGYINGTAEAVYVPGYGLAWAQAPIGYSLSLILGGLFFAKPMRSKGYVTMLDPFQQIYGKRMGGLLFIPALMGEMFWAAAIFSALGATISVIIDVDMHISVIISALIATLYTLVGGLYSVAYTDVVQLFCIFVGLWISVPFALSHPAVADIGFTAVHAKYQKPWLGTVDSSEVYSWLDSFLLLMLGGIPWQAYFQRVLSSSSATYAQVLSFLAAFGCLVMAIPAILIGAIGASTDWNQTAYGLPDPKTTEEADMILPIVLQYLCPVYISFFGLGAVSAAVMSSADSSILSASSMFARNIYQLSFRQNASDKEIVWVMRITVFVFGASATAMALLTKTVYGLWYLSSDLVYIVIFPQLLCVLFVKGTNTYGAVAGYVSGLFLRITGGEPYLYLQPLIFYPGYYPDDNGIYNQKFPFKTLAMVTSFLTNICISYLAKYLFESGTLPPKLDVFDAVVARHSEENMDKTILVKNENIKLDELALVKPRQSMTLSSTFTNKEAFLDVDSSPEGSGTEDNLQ
Calls only; i = inactive.

SMILES	CHT block
CCOC(=O)C(C)Sc1nnc(Cc2cc(=O)[nH]c(=O)[nH]2)n1-c1cccc(OC)c1 (stereo not given)	i
O=C(CCCOc1ccc(Cl)cc1Cl)Nc1ncccn1	i
COc1ccc(/C=C2/Sc3ccc(C(=O)N4CCc5ccccc5C4)cc3NC2=O)cc1	i
COC(=O)c1c(NC(=O)CSc2nncs2)sc2c1CCCCC2	i
S=c1[nH]nc(CSCCOc2ccccc2)o1	i
O=C(CCC(=O)N1CCN(c2ccccc2F)CC1)c1ccc(F)cc1	i
FC(F)(F)c1nc(NCC2CCCO2)c2nnn(Cc3ccccc3Cl)c2n1 (stereo not given)	i
Cc1noc(C)c1S(=O)(=O)N1CCC(C(=O)N2CCN(c3ccc(F)cc3)CC2)CC1	i
O=CN1N=C(c2ccccc2)CC1c1ccc(Cl)cc1 (stereo not given)	i
COc1ccc(NC(=O)Nc2ccccc2SC)cc1OC	i
CCCN(C(=O)CSCc1ccc(Cl)cc1)c1c(N)n(Cc2ccccc2)c(=O)[nH]c1=O	i
CCCn1c(CCC(=O)O)ccc1-c1ccc(F)cc1	i
O=C(Nc1ccccc1)NC1CCN(Cc2nnnn2C2CCCCC2)CC1	i
CC1CN(c2cc3nccnc3cc2F)CC(C)O1 (stereo not given)	i
COc1ccc(N2CCN(C(=O)c3ccc4c(=O)n5c(nc4c3)CCCCC5)CC2)cc1	i
O=c1ccc(Br)c[nH]1	i
O=C(NC(=S)Nc1cccc([N+](=O)[O-])c1)c1ccco1	i
Cc1ccc2c(c1)Cc1nc3ccccc3nc1-2	i
Cc1cc(C(=O)COC(=O)CC2Sc3ccccc3NC2=O)c(C)n1-c1ccc(Br)cc1 (stereo not given)	i
COCCCNCCOCCOc1ccc(C)cc1[N+](=O)[O-]	i
CCOC(=O)c1cccc(NC(=O)c2cccs2)c1	i
COc1ccccc1C(=O)NCC(=O)OCC(=O)Nc1cccc(S(=O)(=O)N(C)C)c1	i
O=C(CCc1nnc(C2CCCCC2)o1)N1CCN(C2CCCCC2)CC1	i
COc1cc2c(cc1OC)CN(Cc1ccc(C)s1)CC2	i
O=C(OCCCCN1C(=O)c2ccccc2C1=O)c1n[nH]c2ccccc12	i
More compounds follow.
SMILES	CHT block
CCC(C)NC(=O)C(CCSC)NC(=O)c1ccccc1 (stereo not given)	i
O=C(COc1ccc(Cl)cc1Cl)N/N=C/c1ccccn1	i
CC(C)CCN(C(=O)CNC(=O)c1cccs1)C(C(=O)NC1CCCC1)c1ccncc1 (stereo not given)	i
Nc1ccc(S(=O)(=O)Nc2nccc(/C=C/c3cccc(Br)c3)n2)cc1	i
CC(C)(C)NC(=O)CCN(/N=C/c1ccncc1)C1=NS(=O)(=O)c2ccccc21	i
Cc1ccc(C2C3=C(CC(C)(C)CC3=O)Nc3n[nH]c(C)c32)cc1 (stereo not given)	i
COc1ccc(S(=O)(=O)N2CCCCC2)cc1NC(=O)c1ccccc1	i
Cc1nonc1NC(=O)CSc1nnc(-c2ccoc2C)n1C	i
O=C(CCc1nc2ccccc2c(=O)[nH]1)NNC(=O)COc1ccccc1Cl	i
S=C(Nc1ccc(CN2CCCCC2)cc1)Nc1cccc(Cl)c1Cl	i
CCOC(=O)CC(NC(=O)c1ccc(C)cc1)c1ccc(OC)cc1 (stereo not given)	i
Cc1cccc(NC(=O)c2cccc(S(=O)(=O)N3CCCCC3)c2)c1	i
O=C(NCc1ccccc1)c1onc(CSc2ccccc2)c1C(=O)NCC1CC1	i
CCOc1cc(C2/C(=C(/O)c3ccc(OC(C)C)cc3)C(=O)C(=O)N2CCCOC)ccc1O (stereo not given)	i
O=C1c2ccccc2C2(c3ccc(F)cc3)NCCN12 (stereo not given)	i
CC1CCN(C(=O)C2CCN(S(=O)(=O)c3cccc4cccnc34)CC2)CC1	i
CCc1ccc(OCc2nnc(SCC(=O)NC3CCCCC3)o2)cc1	i
O=c1ccc(-c2ccccc2)nn1Cc1ccc(F)cc1Cl	i
COc1ccccc1-n1cnc2cc(C(=O)NCC3CCCO3)ccc21 (stereo not given)	i
CCn1c(C)nnc1SCC(=O)Nc1ccc(C(C)=O)cc1	i
CCOc1ccc2nc(SCC(=O)Nc3nonc3C)[nH]c2c1	i
Cc1oc(-c2ccccc2)cc1C(=O)Nc1cccc(C(=O)O)c1	i
O=C(O)Cc1coc(-c2ccc(F)cc2)n1	i
Cc1ccc(NC(=O)OCc2cn(-c3ccc(Cl)cc3)nn2)cc1	i
COc1ccc(C(=O)Nc2ccc(C)cn2)cc1S(=O)(=O)N1CCCc2ccccc21	i

An excerpt of these results, comma-delimited:
mol,CHT block
CCOC(=O)c1cccc(NC(=O)c2cccs2)c1,i
O=C(CCC(=O)N1CCN(c2ccccc2F)CC1)c1ccc(F)cc1,i

The listing continues:
SMILES	CHT block
CC(C)n1cnc2c(NCc3ccc(S(N)(=O)=O)cc3)nc(NCc3ccc(S(N)(=O)=O)cc3)nc21	i
CC(C)NC(=O)C1CCN(C2CCN(Cc3cn[nH]c3-c3ccccc3)CC2)CC1	i
CC(NC(=O)C1CC2CCCC(C1)C2=O)c1ccccc1 (stereo not given)	i
O=c1cc(O)c2c(=O)[nH]c(=O)n(-c3ccccc3)c2[nH]1	i
Cc1ccc(-c2[nH]c(=O)n3ccncc23)s1	i
COc1ccc2cc(C3(C)NC(=O)N(CC(=O)NCC(F)(F)F)C3=O)ccc2c1 (stereo not given)	i
CSCC[C@@H](CO)NC(=O)c1ccc2nc(C3CCCCC3)oc2c1	i
Cc1ccc(S(=O)(=O)N2CCN(c3ccccn3)CC2)cc1	i
COc1cc(OC)cc(-n2nnnc2SCC(=O)Nc2ccc(C(C)=O)cc2)c1	i
CCOC(=O)N1CCN(C(=O)CN(c2cccc(C)c2)S(=O)(=O)c2ccc(C)cc2)CC1	i
Cn1c2c(c(=O)n(C)c1=O)C(c1ccccc1Cl)C(C#N)=C(N)O2 (stereo not given)	i
Fc1ccc(-c2ccc(-c3nn4c(-c5ccco5)nnc4s3)o2)cc1	i
COc1ccc(OC)c(C(=O)c2coc3ccc(O)c(CN4CCOCC4)c23)c1	i
Cn1c(NC(=O)c2ccco2)cc(=O)n(C)c1=O	i
CCOc1cc(C(=O)OCC(=O)Nc2ccc(SC(F)F)cc2)cc(OCC)c1OCC	i
CCOC(=O)c1ccccc1NC(=O)CSc1nc2ccccc2c(=O)[nH]1	i
Cc1ccccc1NC(=O)c1cc(=O)c2ccccc2o1	i
NC(=O)CC(NC(=O)c1ccc(Br)cc1)c1ccc(NCCc2ccc(F)cc2)c([N+](=O)[O-])c1 (stereo not given)	i
COc1ccccc1CNS(=O)(=O)c1ccc2c(c1)NC(=O)C(C)S2 (stereo not given)	i
Cc1ccnc2nc(C(=O)OCCOc3ccccc3)nn12	i
Cc1ccc(Nc2nnc(SCC(=O)c3cc4ccccc4o3)s2)cc1C	i
O=C1c2ccccc2C(=O)N1CCCc1nc(-c2ccncc2)no1	i
CCn1c(NCCO)nc2c(c1=O)C(C)(CC)Cc1ccccc1-2 (stereo not given)	i
Cn1c(CCC(=O)OCC(=O)Nc2ccc(Oc3ccccc3)cc2)nc(=O)c2ccccc21	i
O=C1C2CC=CCC2C(=O)N1c1nc2n(n1)C(c1ccccc1)CC(c1ccccc1)N2 (stereo not given)	i
Further entries
SMILES	CHT block
O=C(NCC1CCCO1)c1cc(-c2ccccc2)nc2ccc(Br)cc12 (stereo not given)	i
CSc1ccc(S(=O)(=O)N2CCCC2)cc1	i
CCCCCC(O)(CCCCC)C(=O)NNc1ccccc1	i
COc1ccc(S(=O)(=O)NC(CC(=O)NCCc2ccc(OC)c(OC)c2)c2ccco2)cc1 (stereo not given)	i
CCOC(=O)CNC(=O)C(CC(C)C)NC(=O)C1CCCCC1 (stereo not given)	i
O=C(CSc1nnc(-c2ccc(OC(F)F)cc2)o1)NC(=O)NCc1ccco1	i
O=C(CN(C1CCCCC1)S(=O)(=O)c1ccc(Cl)cc1)NCCCO	i
Cc1cc(C)cc(N(C(=O)c2cc3ccccc3oc2=O)C2C=CS(=O)(=O)C2)c1 (stereo not given)	i
O=C(COc1ccccc1[N+](=O)[O-])Nc1cccnc1	i
CCOC(=O)C1(C)/C(=N/Nc2ccccc2)C(=O)C(=O)N1c1ccccc1 (stereo not given)	i
COc1ccc(C2/C=C\CN(CC(C)C)CC(=O)N2Cc2ccc(F)cc2)cc1 (stereo not given)	i
CN1C(=O)C(=O)/C(=C(/O)c2ccc(Br)cc2)C1c1ccc(Cl)cc1 (stereo not given)	i
CCN(CC)C(=O)/C(=C\c1ccc(Br)cc1)NC(=O)c1ccccc1OC	i
CC(C)c1ccc(/C=N\NC(=O)c2ccc(Cn3cccn3)o2)cc1	i
CCOc1ccccc1NC(=O)CSc1cn[nH]n1	i
CCOC(=O)c1cc(NC(=O)C2CCCO2)cc(C(=O)OCC)c1 (stereo not given)	i
Cc1cc(C)cc(NC(=O)Cn2nnc(C(=O)NCc3ccc(F)cc3)c2N)c1	i
CCN(CC)c1nc2c(c(=O)[nH]c(=O)n2C)n1CCCc1ccccc1	i
CC(C)C(C(=O)Nc1ccc2c(c1)OCO2)N1C(=O)c2ccccc2C1=O (stereo not given)	i
CN(Cc1ccccc1)C(=O)COC(=O)CCNC(=O)c1ccccc1Cl	i
COc1nc2ccc(C)cc2cc1-c1noc(-c2cccnc2)n1	i
CC(=O)N1CCc2[nH]c3ccc(C)cc3c2C1	i
CS(=O)(=O)N1CC(C(=O)NC2CCCC2)Oc2ccc(Cl)cc21 (stereo not given)	i
Cc1ccc[n+](CC(=O)Nc2cccc([N+](=O)[O-])c2)c1	i
C#Cc1ccc([C@@H]2C=C(C(=O)OCC=C)O[C@H](OCCCCO)C2)cc1	i
Later entries:
SMILES	CHT block
CCO[C@@H]1OC(C(=O)NCc2ccccc2)=C[C@H](c2cn(C(C)=O)c3ccccc23)[C@H]1CCCO	i
COc1cc2ccccc2cc1C(=O)NCc1ccncc1	i
COc1cc(C#CC#CCN2CCCCC2)ccc1O	i
COc1ccc2cc3cc(C(=O)NCc4cccs4)oc3nc2c1	i
CCCCN1C(N)=NC[C@@H]1CCCCN	i
COC(=O)c1cc2ccsc2n1Cc1nc(-c2ccc(Cl)cc2)oc1C	i
COc1cc2c(cc1OC)CN(CC(=O)Nc1ccccc1C(=O)NCc1ccccc1)CC2	i
C/C(Cl)=C/CSc1nc2c(c(=O)[nH]c(=O)n2C)n1C(C)C	i
CC(C)(C)c1ccc(C(=O)NCc2ccc(Cl)cc2)cc1	i
C=CCSc1nnc(-c2cc(C(C)(C)C)nn2Cc2ccc(F)cc2)n1C	i
COc1ccc(CCNC(=O)CSc2nnc(-c3ccc(F)cc3)o2)cc1OC	i
Cc1cccc(/C=N/NC(=O)c2ccccc2OCc2cccc(Br)c2)n1	i
Cc1nc2c(C(=O)Nc3ccc(N4CCCC(O)C4)cc3)snc2c(=O)[nH]1 (stereo not given)	i
Cc1noc(C)c1-c1nc(CS(=O)(=O)c2ccc(Cl)cc2)no1	i
COc1ccc(NC(=O)c2c(OC)cccc2OC)c(OC)c1	i
Cc1ccc2c(CC(=O)N3CCN(S(=O)(=O)c4ccc5c(c4)OCCO5)CC3)coc2c1	i
CN(C)S(=O)(=O)c1ccc(N2CCCC2)c(C(=O)Nc2ccc(F)cc2F)c1	i
COc1ccc(C(=O)C2CCCN(C(=O)c3ccoc3C)C2)cc1F (stereo not given)	i
NC(=O)CSc1nc2cc([N+](=O)[O-])ccc2n1-c1cccc(C(F)(F)F)c1	i
Cc1ccccc1NC(=O)/C(=C/c1cccs1)NC(=O)c1ccco1	i
CCN(CC)c1ccc2cc(C(=O)Nc3ccccn3)c(=O)oc2c1	i
Cn1nc(C(=O)Nc2ccc(S(=O)(=O)Nc3ncccn3)cc2)ccc1=O	i
CCOC(=O)c1ccc(NC(=O)CSC2=NN3CCCC(=O)N=C3S2)cc1	i
O=C(c1cccs1)N1CCN(Cc2ccccn2)CC1	i
C[C@H]1CC[C@@]2(O[C@@H](CCO)C[C@@H](O)[C@@H]2O)O1	i
The listing continues:
SMILES	CHT block
COc1ccccc1CNC(=O)C(C)n1nc(C)c2c(C)n(-c3ccccc3)nc2c1=O (stereo not given)	i
CCOc1ccc(C(=O)NC2CCN(C(=S)NCc3ccco3)CC2)cc1	i
CCCN(CC(=O)Nc1ccccc1C)C(=O)COC(=O)CSc1ccc([N+](=O)[O-])cc1	i
CN(c1ccccc1)C1CCCCC1NS(=O)(=O)c1ccc(Cl)cc1 (stereo not given)	i
CCOC(=O)c1cc(-c2c(Cl)cccc2Cl)no1	i
C/C(=N\Nc1ccc([N+](=O)[O-])cc1[N+](=O)[O-])C(C)(C)C(C(=O)O)C(=O)O	i
Cc1cccc(C(=O)O/N=C(\N)c2ccc(Cl)cc2)c1	i
Nc1nc(-c2ccccc2)cc(-c2ccccc2)n1	i

Filtered by structure, the compounds so far with an aryl thioether with sulfur outside any ring
SMILES	CHT block
CCOC(=O)C(C)Sc1nnc(Cc2cc(=O)[nH]c(=O)[nH]2)n1-c1cccc(OC)c1 (stereo not given)	i
COC(=O)c1c(NC(=O)CSc2nncs2)sc2c1CCCCC2	i
COc1ccc(NC(=O)Nc2ccccc2SC)cc1OC	i
Cc1nonc1NC(=O)CSc1nnc(-c2ccoc2C)n1C	i
O=C(NCc1ccccc1)c1onc(CSc2ccccc2)c1C(=O)NCC1CC1	i
CCc1ccc(OCc2nnc(SCC(=O)NC3CCCCC3)o2)cc1	i
CCn1c(C)nnc1SCC(=O)Nc1ccc(C(C)=O)cc1	i
CCOc1ccc2nc(SCC(=O)Nc3nonc3C)[nH]c2c1	i
COc1cc(OC)cc(-n2nnnc2SCC(=O)Nc2ccc(C(C)=O)cc2)c1	i
CCOc1cc(C(=O)OCC(=O)Nc2ccc(SC(F)F)cc2)cc(OCC)c1OCC	i
CCOC(=O)c1ccccc1NC(=O)CSc1nc2ccccc2c(=O)[nH]1	i
Cc1ccc(Nc2nnc(SCC(=O)c3cc4ccccc4o3)s2)cc1C	i
CSc1ccc(S(=O)(=O)N2CCCC2)cc1	i
O=C(CSc1nnc(-c2ccc(OC(F)F)cc2)o1)NC(=O)NCc1ccco1	i
CCOc1ccccc1NC(=O)CSc1cn[nH]n1	i
C/C(Cl)=C/CSc1nc2c(c(=O)[nH]c(=O)n2C)n1C(C)C	i
C=CCSc1nnc(-c2cc(C(C)(C)C)nn2Cc2ccc(F)cc2)n1C	i
COc1ccc(CCNC(=O)CSc2nnc(-c3ccc(F)cc3)o2)cc1OC	i
NC(=O)CSc1nc2cc([N+](=O)[O-])ccc2n1-c1cccc(C(F)(F)F)c1	i
CCCN(CC(=O)Nc1ccccc1C)C(=O)COC(=O)CSc1ccc([N+](=O)[O-])cc1	i

The list is partial, and most or all hits are left out here.
